c-Myc SMM: binds human c-Myc on microarray | small molecule microarray, His-c-Myc binding, anti-His fluorescence | calls only | 17,000 compounds, 1.5% hits;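 active = spot fluorescence over background with P-value below 7% in all four replicate spots, showing protein binding; compounds were printed on slides so no solution concentration is given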;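 also: score is binary with 100 for all four spots passing and 0 otherwise; about 2 pmol printed per array spot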
Target sequence (P01106 whole entry, looked up): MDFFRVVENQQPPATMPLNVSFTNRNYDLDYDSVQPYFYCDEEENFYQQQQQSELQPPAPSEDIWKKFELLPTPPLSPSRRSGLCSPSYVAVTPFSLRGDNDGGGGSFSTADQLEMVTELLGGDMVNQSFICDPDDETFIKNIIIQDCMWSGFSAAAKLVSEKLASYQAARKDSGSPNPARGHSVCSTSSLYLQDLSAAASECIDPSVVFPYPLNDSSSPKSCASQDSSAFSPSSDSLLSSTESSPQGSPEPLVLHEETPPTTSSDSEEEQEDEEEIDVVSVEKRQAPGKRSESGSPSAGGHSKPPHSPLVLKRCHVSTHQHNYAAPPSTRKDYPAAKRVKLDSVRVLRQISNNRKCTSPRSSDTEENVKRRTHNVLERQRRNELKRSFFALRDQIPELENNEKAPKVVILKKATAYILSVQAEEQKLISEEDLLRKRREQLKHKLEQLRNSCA
mut p53 SMM: mutant p53 (human) binding; small molecule microarray binding, anti-GST fluorescence; calls only; 17,000 compounds, 0.4% hits; AID 624136;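 active = compounds whose four printed spots each glow above background more than chance allows, each with a p-value under 7%; compounds were printed on slides so no solution concentration is given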;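 also: about 2 pmol printed per array spot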
ID4 SMM: ID4 (human) binding | 31,000 compounds, 1.2% hits | AID 624137 | calls only | small molecule microarray, Flag-ID4 binding, fluorescence F/B | P47928;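 active = spot signal over background at p below 0.07 in all four prints; compounds were printed on slides so no solution concentration is given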;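 also: a binder raises fluorescence above local background on the spot; about 2 pmol printed per array spot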
Target sequence (P47928 whole entry, looked up): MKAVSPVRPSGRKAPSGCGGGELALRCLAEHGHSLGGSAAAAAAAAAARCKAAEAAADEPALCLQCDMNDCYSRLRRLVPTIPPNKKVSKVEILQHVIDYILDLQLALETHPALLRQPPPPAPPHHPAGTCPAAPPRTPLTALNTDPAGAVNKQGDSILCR
STAT3 binder: binders of human STAT3; P40763; calls only; Small molecule microarray, His-STAT3 binding, anti-His fluorescence; 17,000 compounds, 0.2% hits;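 active = compounds whose four printed spots each show fluorescence over background unusually high for their array block, chance value under 7%; compounds were printed on slides so no solution concentration is given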;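 also: about 2 pmol printed per array spot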
Calls only; i = inactive; . = not tested or not shown.

Under each structure: ID4 SMM	mut p53 SMM	STAT3 binder	c-Myc SMM
> COc1ccc(CN(C)C[C@H]2Oc3c(NC(=O)C4CCOCC4)cccc3C(=O)N([C@@H](C)CO)C[C@@H]2C)cc1
→ i	i	i	i
> CC(=O)c1ccccc1OCC(O)Cn1ccnc1 (configuration not stated)
→ i	i	i	i
> C/C(=C/C(=O)O)CCC1C(C)CCC2C(C)(C=O)C(O)CCC12C (configuration not stated)
→ i	i	i	i
> C[C@@H]1CN([C@H](C)CO)C(=O)c2cc(NS(=O)(=O)c3ccccc3)ccc2O[C@H]1CN(C)C(=O)Nc1ccc2c(c1)OCO2
→ i	i	i	i
> C[C@H](CO)N1C[C@H](C)[C@H](CN(C)C(=O)NC2CCCCC2)Oc2ccc(NC(=O)NC3CCCCC3)cc2C1=O
→ i	i	i	i
> C[C@H]1CN([C@@H](C)CO)C(=O)c2cc(NC(=O)Nc3ccc4c(c3)OCO4)ccc2O[C@@H]1CN(C)Cc1ccc(C(F)(F)F)cc1
→ i	i	i	i
> Cc1noc(C)c1S(=O)(=O)N(C)C[C@H]1Oc2c(NC(=O)c3ccc(-c4nccs4)cc3)cccc2C(=O)N([C@@H](C)CO)C[C@H]1C
→ i	i	i	i
> CC(Oc1ccc(C(=O)Nc2ccc(Cl)cc2)cc1)C(=O)Nc1cc(Cl)ccc1Cl (configuration not stated)
→ i	i	i	i
> COc1cc2occc2c(O[C@@H]2O[C@H](CO)[C@@H](O)[C@H](O)[C@H]2O)c1CCC(=O)O
→ i	i	i	i
> C[C@H](CO)N1C[C@H](C)[C@H](CN(C)S(=O)(=O)c2ccccc2)Oc2ccc(NC(=O)NC3CCCCC3)cc2C1=O
→ i	i	i	i
> COC(=O)c1cc(O)cc(OC)c1C(=O)c1c(O)cc(C)cc1OC
→ .	i	i	i
> COC(=O)c1cc(C)sc1NC(=S)NCCn1cc(Cl)cn1
→ i	i	i	i
> C[C@H](CO)N1C[C@H](C)[C@H](CN(C)CC2CC2)Oc2ccc(NC(=O)c3ccncc3)cc2CC1=O
→ i	i	i	i
> COc1cc(/C=C/CO)cc(OC)c1OC/C=C(\C)CCC=C(C)C
→ .	i	i	i
> Cc1noc(C)c1NC(=O)Nc1ccc2c(c1)C(=O)N([C@@H](C)CO)C[C@H](C)[C@@H](CN(C)C(=O)C1CCCCC1)OCCCC[C@@H](C)O2
→ i	i	i	i
> C[C@@H]1CN([C@@H](C)CO)C(=O)Cc2cc(NS(=O)(=O)c3ccccc3)ccc2O[C@@H]1CN(C)Cc1ccc2c(c1)OCO2
→ i	i	i	i
> C[C@H]1CN([C@@H](C)CO)C(=O)c2cccc(NC(=O)Nc3ccc(C(F)(F)F)cc3)c2O[C@H]1CN(C)S(=O)(=O)c1cn(C)cn1
→ i	i	i	i
> COc1ccc(CN(C)C[C@H]2Oc3c(NS(C)(=O)=O)cccc3C(=O)N([C@@H](C)CO)C[C@H]2C)cc1
→ i	i	i	i
> C[C@H]1CN([C@@H](C)CO)C(=O)c2cccc(NS(=O)(=O)c3ccccc3)c2O[C@@H]1CN(C)C(=O)Nc1ccccc1
→ i	i	i	i
> C[C@H]1CN([C@@H](C)CO)C(=O)c2cccc(NS(C)(=O)=O)c2O[C@H]1CN(C)C(=O)Nc1ccccc1
→ i	i	i	i
> COc1ccc(S(=O)(=O)Nc2ccc3c(c2)C(=O)N([C@H](C)CO)C[C@H](C)[C@H](CN(C)Cc2ccc4c(c2)OCO4)OCCCC[C@@H](C)O3)cc1
→ .	i	i	i
> C[C@@H]1CN([C@H](C)CO)C(=O)Cc2cc(NC(=O)Nc3ccc(F)cc3)ccc2O[C@@H]1CN(C)CC1CC1
→ i	i	i	i
> C[C@@H]1CN([C@@H](C)CO)C(=O)Cc2cc(NS(=O)(=O)c3cccs3)ccc2O[C@@H]1CN(C)S(=O)(=O)c1ccccc1
→ i	i	i	i
> C[C@@H]1C=C(C(=O)Nc2ccccc2)O[C@H](OCCCCO)C1
→ i	i	i	i
> Cc1ccc(S(=O)(=O)Nc2ccc3c(c2)CC(=O)N([C@@H](C)CO)C[C@H](C)[C@H](CN(C)C(=O)Nc2c(C)noc2C)O3)cc1
→ i	i	i	i
> C[C@H]1CCCCO[C@H](CN(C)S(=O)(=O)c2ccccc2)[C@@H](C)CN([C@@H](C)CO)C(=O)c2cc(N(C)C)ccc2O1
→ i	i	i	i
> Cc1noc(C)c1NC(=O)N(C)C[C@H]1Oc2ccc(NC(=O)c3ccncc3)cc2CC(=O)N([C@H](C)CO)C[C@@H]1C
→ i	i	i	i
> C[C@H](CO)N1C[C@H](C)[C@@H](CN(C)C(=O)Nc2cccc3ccccc23)Oc2ccc(NC(=O)Cn3cnnn3)cc2C1=O
→ i	i	i	i
> CS(=O)(=O)N(CC(=O)Nc1ccc(C(N)=O)cc1)c1cccc(C(F)(F)F)c1
→ i	i	i	i
> C#Cc1ccc([C@@H]2C=C(C(=O)Nc3ccccc3)O[C@H](OCc3ccc(CO)cc3)C2)cc1
→ i	i	i	i
> C[C@H](CO)N1C[C@H](C)[C@@H](CN(C)S(=O)(=O)c2cccs2)Oc2ccc(NC(=O)NC3CCCCC3)cc2CC1=O
→ i	i	i	i
> C[C@@H]1CCCCO[C@H](CN(C)S(=O)(=O)c2ccccc2)[C@@H](C)CN([C@@H](C)CO)C(=O)c2cc(N(C)C)ccc2O1
→ i	i	i	i
> Cc1scc(C(=O)NCCc2ccc(S(N)(=O)=O)cc2)c1-c1ccccc1
→ i	i	i	i
> N#C/C(=C\c1ccc(O)c(O)c1)C(=O)NCCCc1ccccc1
→ .	i	i	i
> COc1ccc(S(=O)(=O)N(C)C[C@H]2Oc3c(NC(=O)c4ccncc4)cccc3C(=O)N([C@@H](C)CO)C[C@@H]2C)cc1
→ i	i	i	i
> C[C@H](CO)N1C[C@H](C)[C@H](CN(C)S(=O)(=O)c2ccccc2)Oc2ccc(N(C)C)cc2CC1=O
→ i	i	i	i
> Cc1ccc(-c2nnc(SCC(=O)Nc3ccccc3N3CCOCC3)o2)cc1
→ i	i	i	i
> C[C@H]1CN([C@@H](C)CO)C(=O)c2cc(NC(=O)Cc3ccccc3)ccc2O[C@@H]1CN(C)CC1CCCCC1
→ .	i	i	i
> Cn1c(=O)c2c(nc(NCCO)n2CCc2ccccc2)n(C)c1=O
→ i	i	i	i
> C[C@H](CO)N1C[C@H](C)[C@@H](CN(C)C(=O)Nc2ccc3c(c2)OCO3)Oc2ccc(NC(=O)Nc3ccc4c(c3)OCO4)cc2C1=O
→ i	i	i	i
> C[C@H]1CN([C@@H](C)CO)C(=O)Cc2cc(NS(=O)(=O)c3cccs3)ccc2O[C@@H]1CN(C)Cc1ccccc1
→ i	i	i	i
> COc1ccc(S(=O)(=O)Nc2ccc3c(c2)CC(=O)N([C@H](C)CO)C[C@H](C)[C@H](CN(C)Cc2ccc(C(F)(F)F)cc2)O3)cc1
→ i	i	i	i
> CCn1c(=O)c(C(=O)NCCO)c(O)c2ccccc21
→ i	i	i	i
> CNC[C@@H]1Oc2ccc(NC(=O)Nc3cccc4ccccc34)cc2CC(=O)N([C@H](C)CO)C[C@@H]1C
→ i	i	i	i
> CC(C)[C@@H]1CC[C@@]2(C)CCC[C@@](C)(O)[C@@H]2[C@H]1OC(=O)/C=C/c1ccccc1
→ i	i	i	i
> Cc1nnc(SCC(=O)Nc2ccc([N+](=O)[O-])cc2)s1
→ i	i	i	i
> COC1=CC(=O)CC(C)C12Oc1cc(OC)cc(OC)c1C2=O (configuration not stated)
→ i	i	i	i
> Cc1ccnc(NS(=O)(=O)c2ccc(NC(=O)C34CCC5CC(CC(C5)C3)C4)cc2)n1
→ i	i	i	i
> C[C@@H]1CN([C@@H](C)CO)C(=O)CCCn2nncc2CO[C@@H]1CN(C)C(=O)Nc1ccc(N2CCN(C)CC2)cc1
→ i	i	i	i
> COC(=O)c1ccccc1NC(=O)CSc1nc2cc(Cl)ccc2s1
→ i	i	i	i

Later entries
Under each structure: ID4 SMM	mut p53 SMM	STAT3 binder	c-Myc SMM
> CNC[C@@H]1OCCCC[C@H](C)Oc2ccc(NS(=O)(=O)c3c(C)noc3C)cc2C(=O)N([C@H](C)CO)C[C@@H]1C
→ i	i	i	i
> C[C@@H]1CN([C@H](C)CO)C(=O)c2cc(NS(=O)(=O)c3ccccc3)ccc2O[C@@H](C)CCCCO[C@H]1CN(C)C(=O)c1ccccc1
→ i	i	i	i
> Cc1noc(C)c1S(=O)(=O)N(C)C[C@H]1OCCCC[C@H](C)Oc2ccc(NC(=O)Nc3ccccc3)cc2C(=O)N([C@@H](C)CO)C[C@@H]1C
→ .	i	i	i
> Cc1nn(C(=O)c2ccco2)c(C)c1CN1C(=O)c2ccccc2C1=O
→ i	i	i	i
> Cc1ccc(S(=O)(=O)N(C)C[C@H]2Oc3ccc(NC(=O)CCC(F)(F)F)cc3C(=O)N([C@@H](C)CO)C[C@H]2C)cc1
→ .	i	i	i
> Cc1nc(-c2ccccc2)c(-c2ccncc2)o1
→ i	i	i	i
> C[C@@H]1CN([C@@H](C)CO)C(=O)c2cc(NC(=O)Nc3ccc4c(c3)OCO4)ccc2O[C@@H]1CN(C)CC1CCCCC1
→ i	i	i	i
> CC(C)N(Cc1nc(-c2ccccc2)no1)C(=O)c1ccc([N+](=O)[O-])cc1
→ i	i	i	i
> C[C@@H]1CCCCO[C@@H](CN(C)S(=O)(=O)c2ccc(F)cc2)[C@@H](C)CN([C@@H](C)CO)C(=O)c2cc(NS(=O)(=O)c3ccc(F)cc3)ccc2O1
→ .	i	i	i
> COc1ccc(S(=O)(=O)N(C)C[C@@H]2Oc3ccc(NC(=O)Nc4c(C)noc4C)cc3C(=O)N([C@H](C)CO)C[C@H]2C)cc1
→ i	i	i	i
> O=C(NCCCn1ccnc1)C1CC(c2ccccc2Cl)=NO1 (configuration not stated)
→ i	i	i	i
> O=C(Nc1ccc(I)cc1C(=O)NCc1ccco1)c1cccnc1
→ i	i	i	i
> C[C@H]1CN([C@@H](C)CO)C(=O)Cc2cc(NC(=O)NC3CCCCC3)ccc2O[C@@H]1CN(C)Cc1ccc(C(=O)O)cc1
→ i	i	i	i
> CCCCNC(=O)c1ccc(C#CC(C)(C)C)c(OC(C)=O)c1
→ i	i	i	i
> Cc1cccc(-c2nnc(SCc3nc4ccccc4c(=O)[nH]3)n2-c2ccccc2)c1
→ i	i	i	i
> C[C@H](CO)N1C[C@H](C)[C@H](CN(C)C(=O)Nc2ccccc2)Oc2ccc(NC(=O)Cc3ccccc3)cc2CC1=O
→ i	i	i	i
> Cc1ccc(OC(=O)N(C)C[C@@H]2OCc3cn(nn3)CCCC(=O)N([C@@H](C)CO)C[C@H]2C)cc1
→ i	i	i	i
> CC(=O)Nc1ccc(OC(=O)CSc2nc3ccccc3s2)cc1
→ i	i	i	i
> O=C(Cn1cc(C(=O)C2CC2)c2ccccc21)Nc1ccccc1Cl
→ i	i	i	i
> NC(=O)CSc1nnc(SCc2cccc3ccccc23)s1
→ i	i	i	i
> C[C@@H]1CN([C@@H](C)CO)C(=O)c2cccc(NC(=O)Nc3ccc(C(F)(F)F)cc3)c2O[C@H]1CN(C)Cc1ccncc1
→ i	i	i	i
> COC(CC(c1c(O)cc2cc(C)oc(=O)c2c1O)c1c(O)cc2cc(C)oc(=O)c2c1O)C(=O)O (configuration not stated)
→ i	i	i	i
> Cc1noc(C)c1NC(=O)N(C)C[C@H]1OCCCC[C@@H](C)Oc2ccc(NS(=O)(=O)c3cn(C)cn3)cc2C(=O)N([C@H](C)CO)C[C@@H]1C
→ i	i	i	i
> CCCOc1ccc(Oc2nc(NCC)nc(OC)n2)nn1
→ i	i	i	i
> O=C(Nc1cccc(C(=O)OC2Cc3ccccc3C2=O)c1)c1ccccc1 (configuration not stated)
→ i	i	i	i
> CC(C)NC(=O)Nc1ccc2c(c1)CC(=O)N([C@@H](C)CO)C[C@H](C)[C@H](CN(C)C(=O)Nc1cccc3ccccc13)O2
→ .	i	i	i
> CC(C)c1ccc2oc(-c3ccc(NC(=O)COc4ccc([N+](=O)[O-])cc4)cc3)nc2c1
→ i	i	i	i
> CCOC(=O)c1sc(NC(=O)c2cc(-c3ccccc3)on2)c(C(=O)OCC)c1C
→ i	i	i	i
> C[C@H](CO)N1C[C@H](C)[C@H](CN(C)Cc2ccc(C(F)(F)F)cc2)Oc2c(NC(=O)NC3CCCCC3)cccc2C1=O
→ .	i	i	i
> CNC[C@@H]1OCCCC[C@H](C)Oc2ccc(NC(=O)CCC(F)(F)F)cc2C(=O)N([C@@H](C)CO)C[C@@H]1C
→ i	i	i	i
> CC(=O)N1Cc2ccccc2C[C@]2(N=C(c3ccc(OCCCO)cc3)O[C@@H]2c2ccccc2)C1=O
→ i	i	i	i
> Cc1noc(C)c1NC(=O)Nc1ccc2c(c1)C(=O)N([C@@H](C)CO)C[C@H](C)[C@@H](CN(C)Cc1ccncc1)O2
→ .	i	i	i
> O=c1c2ccccc2nc(-c2ccc(Cl)cc2Cl)n1CCCOc1ccccc1[N+](=O)[O-]
→ i	i	i	i

Arranged by SMILES length (rising): part of the list above.
Under each structure: ID4 SMM	mut p53 SMM	STAT3 binder	c-Myc SMM
> CCCOc1ccc(Oc2nc(NCC)nc(OC)n2)nn1
→ i	i	i	i
> O=C(Nc1cccc(C(=O)OC2Cc3ccccc3C2=O)c1)c1ccccc1 (configuration not stated)
→ i	i	i	i
> Cc1noc(C)c1NC(=O)N(C)C[C@H]1OCCCC[C@@H](C)Oc2ccc(NS(=O)(=O)c3cn(C)cn3)cc2C(=O)N([C@H](C)CO)C[C@@H]1C
→ i	i	i	i

This is a random part of the collection, and some 3.7% of all compounds hit somewhere here.
